GLA inh pH 4.5 = blocks human alpha-galactosidase A at pH 4.5; 230,000 tested, under 10 active; P06280; activity change, negative = inhibition, % at 105 µM; AID 1467; purified enzyme, 4-MU-alpha-Gal fluorescence, pH 4.5; inconclusive = small, poorly fitted or top-dose-only inhibition, or a rising curve; inactive = flat fitted curve, though single readings scatter; no compound was filed as active;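 further: 0% = full activity with enzyme and -100% = basal without enzyme; dose as in the result columns while the protocol names 77 µM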
Rango-impB inh = prevents formation of the Rango-importin beta complex. Q14974. Rango CFP/YFP FRET sensor + importin beta, 45 min. Potency, µM (series often up to 92.2 µM), for inactives: at the highest dose inhibition of complex formation. actives 0.031% (n = 340,000); active = rising FRET ratio curve, often small or poorly fitted; inconclusive = mostly compound fluorescence or quenching in the first reads; inactive = flat curves in all reads;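 further: potency means the concentration at half of the fitted maximal effect; 0% = DMSO wells and 100% = buffer wells lacking importin beta; nearly all actives have a fitted effect of over 15% in size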
Target sequence (Q14974 whole entry, looked up): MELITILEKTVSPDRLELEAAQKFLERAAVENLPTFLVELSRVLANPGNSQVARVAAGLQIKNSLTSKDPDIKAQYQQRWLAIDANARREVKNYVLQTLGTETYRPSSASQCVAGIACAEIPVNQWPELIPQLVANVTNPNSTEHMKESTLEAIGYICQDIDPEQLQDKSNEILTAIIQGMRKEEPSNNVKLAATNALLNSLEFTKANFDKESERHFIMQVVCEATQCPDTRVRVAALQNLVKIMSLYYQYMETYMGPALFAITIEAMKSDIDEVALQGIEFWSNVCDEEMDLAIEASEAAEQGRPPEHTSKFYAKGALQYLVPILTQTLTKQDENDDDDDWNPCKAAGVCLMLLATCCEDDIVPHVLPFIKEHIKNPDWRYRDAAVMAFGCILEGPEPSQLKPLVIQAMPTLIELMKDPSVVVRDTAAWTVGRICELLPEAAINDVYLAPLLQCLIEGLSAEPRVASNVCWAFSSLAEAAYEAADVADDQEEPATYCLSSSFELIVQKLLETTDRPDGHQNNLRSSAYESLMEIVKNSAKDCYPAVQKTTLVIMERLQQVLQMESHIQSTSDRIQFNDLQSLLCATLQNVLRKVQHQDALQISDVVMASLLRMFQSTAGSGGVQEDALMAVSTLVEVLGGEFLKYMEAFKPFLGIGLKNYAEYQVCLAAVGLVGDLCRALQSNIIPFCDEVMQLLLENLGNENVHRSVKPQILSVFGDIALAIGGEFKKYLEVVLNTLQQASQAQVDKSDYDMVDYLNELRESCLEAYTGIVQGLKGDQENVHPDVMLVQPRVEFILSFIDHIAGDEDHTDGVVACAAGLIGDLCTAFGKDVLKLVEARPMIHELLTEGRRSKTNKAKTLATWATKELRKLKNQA
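FRET biosensor Rango (snurportin 1 IBB between N-terminal EYFP and C-terminal Cerulean), 50 nM in PBS/1 mM DTT/0.02% Tween-20/0.1% BSA, preincubated 5 min RT with compound; 0.125 microM importin beta added, 45 min RT, CFP/YFP FRET ratio read.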
miR-21 reporter = miR-21 reporter, rising signal; HeLa miR-21 FLuc reporter, luciferase, 48 h; Potency, µM (top dose mostly 38.3 µM), for inactives: top-dose reporter change, positive = more light; 340,000 tested, under 10 active; AID 2288; active = well fitted rising curve with a large enough effect; inconclusive = small, poorly fitted or top-dose-only effect; inactive = no such curve, though single readings can be large or run the other way;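 further: % of control where 0% means no effect; miR-21 action dims this reporter so a rising signal means less miR-21 action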
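HeLa cells endogenously expressing miR-21, stably carrying CMV-driven firefly luciferase with a downstream miR-21 binding site, 2000 cells/well. Titrations up to approximately 40 uM, 48 hours; luciferase luminescence read.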
Rango release inh = inhibitors of RanGTP-induced Rango-importin beta complex dissociation. Potency, µM (series often up to 46.1 µM), for inactives: at the top dose activity change, negative = inhibition. O95149+P62826. AID 540253. Biochemical FRET Rango-importin beta, RanGTP-induced dissociation. actives 0.071% (n = 340,000); active means falling FRET ratio curve, often poorly fitted, with flat reads before Ran was added; inconclusive means other falling curves, or compound fluorescence or quenching; inactive means flat or rising ratio curve;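 further: potency means the concentration at half of the fitted maximal effect; % of control where 0% means no effect; nearly all actives have a fitted effect of over 45% in size; -100% = wells without RanGTP and RCC1; the record marks most hits as doubtful in a second field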
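Compounds preincubate 5 min with complex of recombinant Rango and importin beta in PBS with 1 mM DTT. Ran (0.6 uM) loaded with 2 mM GTP plus 0.2 uM RCC1 starts dissociation; FRET is recorded 45 min later.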
Starred values were filed as active, the others as inactive; ? = inconclusive; · = not tested or not shown; & = joins results of further samples. Not all compounds are listed; the hit share may differ from the screen's.

SMILES | GLA inh pH 4.5 | Rango-impB inh | miR-21 reporter | Rango release inh
NC(=O)c1cc([N+](=O)[O-])ccc1NCc1cccc(N)c1 | · | ? | · | 0%
CC1CN(C(=O)c2ccc([N+](=O)[O-])s2)CC(C)O1 (stereo not given) | · | 0.1% | · | 15%
O=C(CN1C(=O)S/C(=C\c2ccccc2F)C1=O)NCCCn1ccnc1 | · | -1.0% | -4% | -9%
C(=N\NC1=Nc2cccc3cccc1c23)/c1ccccn1 | -6 | ? | 17% | -29%
Cn1cc(C(=O)NCc2ccc(F)cc2)c(=O)c2cc(S(=O)(=O)N3CCCCC3)ccc21 | -4 | 8.3% | 3%&-7% | -20%
CCc1nc2ccc(C(=O)N3CCN(c4ccc(Cl)cc4)CC3)cc2nc1CC | · | 1.8% | -1%&6% | -9%
CCOC(=O)C1=C(COC(=O)C2CC(=O)N(c3ccc(CC)cc3)C2)NC(=O)NC1C (stereo not given) | · | 0.7% | · | -1%
CCN(CC)S(=O)(=O)c1cc(C(=O)Nc2cc(S(=O)(=O)N3CCOCC3)ccc2N2CCN(C)CC2)ccc1C | · | -4.2% | · | 11%
C1=C(C(c2nnnn2C2CCCCC2)N2CCCCC2)COc2ccccc21 (stereo not given) | -1 | -3.5% | 0% | -4%
O=C(COc1ccccc1Cl)N1CCN(c2ccccn2)CC1 | · | 0.3% | · | 11%
CN1CCN(C(=O)C2=C[C@H](c3csc4ccccc34)C[C@H](OCCCCO)O2)CC1 | -3 | 5.5% | -5% | 11%
COc1cc(C(C)=O)ccc1OCC(O)CN1CCN(c2c(C)cccc2C)CC1 (stereo not given) | · | -2.6% | 22% | 9%
Cc1ccc(Nc2nnc(SCC(=O)Nc3cccc(S(=O)(=O)NC4=NCCCCC4)c3)s2)cc1 | -7 | -3.4% | -20% | 2%
Nc1ccn(Cc2ccccc2)n1 | -9 | 0.3% | 0% | 18%
CCCCOc1ccc(NC(=O)CCSc2nccn2C)cc1 | 4 | 2.6% | -17% | 8%
CC(=N\Nc1ccc(Cl)cc1)/C(=N/O)C(=O)Nc1ccccc1 | 6 | 3.1% | -4% | 4%
CN(Cc1nc2ccccc2c(=O)[nH]1)C(=O)c1ccc(NC(=O)CSc2nnnn2C)cc1 | · | 0.0% | · | -16%
CCOCCCn1c(SCc2nc3ccccc3s2)nc2ccccc2c1=O | 5 | ? | -49% | -6%
COc1ccc(C(=O)N/C(=C\c2cccc3ccccc23)C(=O)NCCc2c[nH]c3ccccc23)cc1OC | -6 | -1.1% | 6% | -12%
CCCCNC(=S)NCCN1CCN(C(=S)NCCCC)CC1 | 4 | -2.4% | -6% | -1%

Rewritten with each value named: entries from further up
O=C(COc1ccccc1Cl)N1CCN(c2ccccn2)CC1
  GLA inh pH 4.5: ·
  Rango-impB inh: 0.3%
  miR-21 reporter: ·
  Rango release inh: 11%
CN1CCN(C(=O)C2=C[C@H](c3csc4ccccc34)C[C@H](OCCCCO)O2)CC1
  GLA inh pH 4.5: -3
  Rango-impB inh: 5.5%
  miR-21 reporter: -5%
  Rango release inh: 11%

More compounds:
SMILES | GLA inh pH 4.5 | Rango-impB inh | miR-21 reporter | Rango release inh
CCN(CC)CCn1c(C)nc2c(sc3nc4c(cc32)COC(C)(C)C4)c1=O | 1 | -1.4% | 7% | 9%
CCn1cc(C(=O)OCC(=O)NCc2ccccc2Cl)c(=O)c2ccc(C)nc21 | -5 | 3.0% | 6% | 1%
Cc1ccc(C(=O)Nc2nnc(-c3cccs3)s2)cc1C | 3 | 7.1% | -43% | 9%
O=C(c1ccco1)c1cn(CC(=O)N2CCCc3ccccc32)c2ccccc12 | -9 | -2.1% | 6% | -4%
Cc1cccc(N2CCN(S(=O)(=O)c3ccc4c(c3)CCCN4C(=O)C3CCC3)CC2)c1C | · | 0.0% | -7%&20% | 1%
O=C(CN1CC(=O)Oc2ccccc21)OCC(=O)c1ccc(Br)cc1 | · | -1.1% | · | -5%
Cc1ccc(S(=O)(=O)/N=S(/c2ccccc2)C(C)C)cc1 (stereo not given) | -10 | -1.9% | -6% | 1%
CCOc1ccc2oc(C(=O)NC3CCN(Cc4ccccc4)CC3)c(C)c2c1 | -10 | 6.9% | -1% | 5%
COc1ccc(CCNS(=O)(=O)c2ccc(Cl)cc2)cc1OC | · | 3.4% | -3% | 13%
O=C(CSc1nnc(CNC(=O)c2ccco2)o1)NC1CCCC1 | 1 | 0.7% | -7% | -15%
COC(=O)CC(=O)CSc1nc2c(cc1C#N)CCCCC2 | -7 | ? | -38% | ?
O=C(COc1ccccc1)N1CCN(C(=O)c2ccccc2F)CC1 | · | -2.5% | 1% | 21%
CCOCCCNc1c(CC)c(C)c(C#N)c2nc3ccccc3n12 | · | ? | -8% | ?
Cc1cc(C)nc(NS(=O)(=O)c2ccc(NC(=O)CSc3ncn[nH]3)cc2)n1 | 1 | -1.7% | -1% | 7%
Cc1ccc(CNC(=O)c2cc3ccccc3oc2=O)cc1 | · | -2.4% | · | -10%
CC(=O)OCCCN1c2ccccc2Nc2nnc(-c3ccccc3)cc21 | -1 | 2.5% | -19% | 9%
COc1cccc(/C=C2\SC(=S)N(C(C)C(=O)NC3C=CS(=O)(=O)C3)C2=O)c1 (stereo not given) | · | -1.1% | 4% | 3%
O=C(O)CSCC(=O)NCc1ccccc1Cl | -2 | 1.4% | 1% | 0%
Cc1ccc(NC(=O)Cc2ccccc2Cl)cc1S(=O)(=O)N(C)C | -20 | 0.8% | -5% | -6%
O=S(=O)(Cc1ccccc1)N1CCc2ccccc2C1 | 7 | -5.7% | -12% | -9%
COc1ccc(CNc2ncc(-c3ccc(Cl)cc3)n2C)c(OC)c1OC | · | 0.8% | 5% | -14%
COc1cccc(CNS(=O)(=O)c2ccccc2Br)c1OC | · | 2.9% | · | 12%
Cc1ccc2[nH]c(=O)c(C(c3nnnn3CCc3ccccc3)N3CCOCC3)cc2c1 (stereo not given) | -10 | -0.9% | -4% | 0%
Cc1ccc(-c2nc3ccccc3o2)cc1NC(=S)NC(=O)c1cc2ccccc2o1 | 5 | -2.2% | -58% | 9%
CCCCNCCS(=O)(=O)NCc1ccccc1 | · | -2.8% | · | -1%
COc1cccc(CCNC(=O)COc2cccc3c2OC(C)(C)C3)c1 | · | -0.4% | · | -1%
O=C(COC(=O)c1cc(=O)[nH]c2ccccc12)NCCc1ccccc1 | · | -0.3% | · | -1%
COC(CNC(=O)c1c[nH]c2ccc(S(=O)(=O)N3CCC4(CC3)OCCO4)cc2c1=O)OC | 3 | -1.4% | -2% | 8%
Cc1nc(N2CCN(c3ccccc3)CC2)[nH]c(=O)c1Cc1cccc2ccccc12 | -2 | · | 2% | ·
C=CC(C)(C)c1cc2cc3ccoc3cc2oc1=O | -15 | -3.2% | -21% | 2%
O=C(NCC1CCN(Cc2cccc(Cl)c2)CC1)Nc1ccc(Cl)cc1 | · | 1.1% | 15% | -11%
COc1ccc(/C=C/CN2CCN(Cc3ccc(C)cc3)C(CCO)C2)cc1 (stereo not given) | 8 | 0.5% | 12% | 6%
O=C(C[n+]1ccccc1)Nc1ccccc1Br | 0 | -3.1% | -5% | 28%
CCCOC(=O)Nc1nnc(CCC)s1 | 3 | 1.1% | -20% | -22%
CCN(CC)C(=O)CSc1nnc(-c2cccs2)n1Cc1ccco1 | 4 | -3.7% | 2% | -9%
COc1ccc(/C(C)=N/NC(=O)Cc2c(C)nc(C)[nH]c2=O)cc1 | 0 | 1.9% | -1% | 1%
N#Cc1ccc(NC(=O)COC(=O)CCc2nc3ccccc3c(=O)[nH]2)cc1 | -2 | 1.3% | 2% | -13%
O=C(CCS(=O)(=O)Cc1ccccc1F)NCCc1ccc(Cl)cc1 | · | -1.4% | -1% | 4%
COc1ccc(CCN2CC(C(=O)Nc3nccs3)CC2=O)cc1OC (stereo not given) | · | 4.6% | · | 0%
CC(=O)N1CCN(Cc2nc3cc(NC(=O)c4ccccc4C)ccc3n2C)CC1 | 7 | 0.6% | 0% | 0%

One compound at a time, as listed above. Screens in order: GLA inh pH 4.5	Rango-impB inh	miR-21 reporter	Rango release inh
COc1ccc(CNc2ncc(-c3ccc(Cl)cc3)n2C)c(OC)c1OC in the list: ·	0.8%	5%	-14%
NC(=O)c1cc([N+](=O)[O-])ccc1NCc1cccc(N)c1 in the list: ·	?	·	0%
COc1ccc(/C=C/CN2CCN(Cc3ccc(C)cc3)C(CCO)C2)cc1 (stereo not given) in the list: 8	0.5%	12%	6%
CCOC(=O)C1=C(COC(=O)C2CC(=O)N(c3ccc(CC)cc3)C2)NC(=O)NC1C (stereo not given) in the list: ·	0.7%	·	-1%
O=C(O)CSCC(=O)NCc1ccccc1Cl in the list: -2	1.4%	1%	0%

Next section
SMILES | GLA inh pH 4.5 | Rango-impB inh | miR-21 reporter | Rango release inh
CC(NS(=O)(=O)c1ccc(Br)cc1)C(=O)NCC1CCCO1 (stereo not given) | · | 0.0% | -3% | 22%
Cc1cccc(C(=O)Nc2nnc(Cc3ccccc3)s2)c1 | · | -0.3% | -10% | 25%
CCOC(=O)C1CCCN(c2c(Nc3ccc(C)c(C)c3)c(=O)c2=O)C1 (stereo not given) | 0 | 0.1% | -9% | -19%
O=c1[nH]cn[nH]1 | 2 | 0.7% | -1% | 8%
CCCn1cc(S(=O)(=O)c2ccc(C)cc2)c(=O)c2cc(OC)ccc21 | · | 5.2% | -12% | -1%
Cc1cccc(C(=O)Nc2ccccc2C(=O)OCc2c(C)noc2C)c1 | 1 | 0.2% | -20% | -6%
Cc1nnsc1-c1c(C(=O)O)c(C)nn1-c1ccc(OC(F)(F)F)cc1 | 4 | -1.7% | -5% | 2%
Cc1ccc(S(=O)(=O)N2C[C@@H]3[C@H]4CC[C@H](C4)[C@@H]3[C@@H](C)[C@@H]2c2ccn([Si](C(C)C)(C(C)C)C(C)C)c2)cc1 | · | -3.2% | · | 14%
C/C(N)=C(/C#N)C(=O)COC(=O)c1ccc(OCC2CCCO2)cc1 (stereo not given) | · | -0.1% | -19% | -6%
Cc1cc(C)c(NC(=O)c2ccccc2N(C)S(C)(=O)=O)c(C)c1 | -9 | 0.9% | -8% | 7%
CCC(C)c1ccc(N(C(=O)c2ccco2)C(C(=O)NC2CCCC2)c2cccnc2)cc1 (stereo not given) | · | 1.7% | -18% | 22%
COc1ccc(C(=O)NNC(=O)CSc2nnnn2-c2cc(OC)cc(OC)c2)cc1 | · | 0.9% | -3% | -1%
COc1cc(S(=O)(=O)Nc2ccc(C)cc2)ccc1N=Cc1c(C)[nH]n(-c2ccc(C)cc2)c1=O | 1 | -2.5% | -9% | 2%
CCc1cc2c(CN3CCN(C)CC3)cc(=O)oc2cc1O | ? | ? | -12% | ?
CCN1C(=O)c2cccc3c(S(=O)(=O)NCCc4c[nH]c5ccccc45)ccc1c23 | 5 | ? | 0% | ?
Cc1ccc(-c2cc(C(=O)N3CCOCC3)no2)cc1 | · | -2.4% | 20% | ?
O=C(NC1CC(=O)N(c2ccc(Cl)cc2)C1)N1CCN(C(=O)c2ccco2)CC1 (stereo not given) | · | -2.3% | · | 9%
COc1ccccc1NC(=O)Cn1ccn(-c2cccc3ccccc23)c(=O)c1=O | · | 0.9% | · | -13%
COc1cc(/C=N/N2C(=O)C3C4c5ccccc5C(c5ccccc54)C3C2=O)ccc1O (stereo not given) | -22 | -3.1% | 1% | 9%
COc1cc(OC)cc(C(=O)Nc2ncc3c(n2)CC(C)(C)CC3=O)c1 | -14 | -0.1% | -14% | 8%
Cc1ccc(S(=O)(=O)NC2(C(F)(F)F)NC(=O)N(c3ccccc3F)C2=O)cc1 (stereo not given) | · | 3.3% | 2% | -14%
O=C(O)c1csc(-c2ccccc2)n1 | 2 | -5.7% | -2% | 6%
C#CCSc1nc(Cc2ccc(Cl)cc2)nc2ccccc12 | 3 | -2.7% | -7% | -1%
COC(=O)COc1cc(C)cc2oc(=O)c(CC(=O)OC)c(C)c12 | -4 | 3.8% | -1% | -2%
CC(C)(C)n1nnnc1C(c1ccc(F)cc1)N1CCN(Cc2ccc3c(c2)OCO3)CC1 (stereo not given) | -18 | -0.5% | -10% | 3%
COc1ccc(NC(=O)C(NC(=O)Cc2cccs2)c2ccc(C)cc2)cc1 (stereo not given) | -2 | 2.9% | -9% | -8%
O=C(O)c1cnn2cc(-c3[nH]ncc3[N+](=O)[O-])cnc12 | -4 | -1.0% | -1% | -10%
